# HSD17B inhib – HSD17B dehydrogenase inhibition. Q99714. recombinant HSD17B10, NADH fluorescence kinetic; many of its hits are not listed in these tables. Potency, µM (highest dose often 57.1 µM), for the others: at the top dose activity change, negative = inhibition, most hits filed as inhibitors. 7.6% of 75,000 active. AID 893; active means well fitted inhibition curve with a large enough effect; inconclusive means small, poorly fitted or top-dose-only effect; inactive means no such curve, though single readings can be large or run the other way;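 further: the protocol describes HADH2 (HSD17B10) and not the HSD17B4 of the title; nearly all actives have a fitted effect of over 70% in size; most hits overshoot -100% by far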
#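 Enzyme plus compound, 15 min room temperature; substrate mix added (NAD+ 1 mM, beta-hydroxybutyryl-CoA 90 uM final); plates read kinetically for NADH fluorescence. HADH2 was His-tagged, E. coli-derived, 20 nM.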
# Numbers without * were called inactive; u = inconclusive; [ ] = another dose, or the depositor's remark. On the % scale 0 is the no-effect control and ±100 the full control effect; potency means the concentration at half of the fitted maximal effect. This is a subset. The share of hits here may be higher or lower than overall.
SMILES,HSD17B inhib
Cc1cc(C)c(N2CCN(S(=O)(=O)N3CCCCCC3)CC2)c(C)c1,-1.1%
CC1=CCC2C(=O)N(c3ccc4ccccc4n3)C(=O)C2C1 (stereo not drawn),12.8%
O=C(Cc1cccs1)NCC1CCCO1 (stereo not drawn),u
Cn1c(=O)[nH]c(=O)c2c1nc(Sc1ncccn1)n2CCCc1ccccc1,13.8%
O=C(CN1CCOCC1)Nc1ccccc1-c1ccccc1,10.0%
COc1ccc(C(=O)N(CN2CCCC2=O)c2cc(C)on2)cc1OC,1.1%
O=C(NC1CCCCC1)C(c1ccncc1)N(C(=O)Cn1nnc(-c2cccs2)n1)C1CCCC1 (stereo not drawn),2.2%
Cc1ccc(NC(=O)CSc2nnc(-c3cnccn3)n2Cc2ccco2)cc1,11.4%
COC(=O)NC(c1ccco1)C(C(C)=O)C(=O)OC (stereo not drawn),-0.6%[11.4 µM]
CCOC(=O)C1=NO[C@@]2(C=C(Br)C3(OCCCO3)[C@H]3O[C@H]32)C1,2.5%[11.4 µM]
COc1ccc(NC(=O)C2OCCc3ccccc32)c(OC)c1 (stereo not drawn),1.5%
Cc1cnc(C(=O)OCC(=O)Nc2ccc(Cl)cc2Cl)cn1,20.5%

# Brought forward from above: two compounds; new compounds follow.
SMILES,HSD17B inhib
COc1ccc(NC(=O)C2OCCc3ccccc32)c(OC)c1 (stereo not drawn),1.5%
Cc1cnc(C(=O)OCC(=O)Nc2ccc(Cl)cc2Cl)cn1,20.5%
CC(C)CCOCC1CC2(CC(C)(c3csc(N)n3)OC2=O)C(=O)O1 (stereo not drawn),4.5%
Cc1cccc(NC(=O)Cn2cnc3ccc(S(=O)(=O)N4CCC(C)CC4)cc3c2=O)n1,u
Cc1cccc(-c2nnn(CC/C(N)=N/O)n2)c1,0.5%
CCN1C(=O)c2ccc(C(=O)O)cc2C1=O,-1.6%
O=C(N1CCOCC1)N(Cc1ccco1)CC1CCCO1 (stereo not drawn),-0.5%
COC(=O)CCS(=O)(=O)c1ccc(Cl)c(Cl)c1,7.2%
COc1ccc(-c2nn3cnnc3s2)cc1OC,25.1µM*
O=C(NCCCn1ccnc1)c1cn(-c2ccccc2)nc1-c1ccccc1,5.2%
O=C(COC(=O)Cn1cnc2ccccc21)NCCc1ccccc1,9.7%
COC(=O)Cc1c(C)nc2nc(Cc3ccccc3)[nH]n2c1=O,12.0%
COC(=O)c1ccc(CSc2nc3c(cnn3-c3ccc(F)cc3)c(=O)[nH]2)o1,u
C=C[C@@]1(C)CC(=O)[C@@]2(O)[C@@]3(C)[C@H](O)CCC(C)(C)[C@@H]3[C@H](O)[C@H](OC(C)=O)[C@]2(C)O1,4.6%
O=C1Nc2ccccc2C12OCC1(CO2)COC2(OC1)C(=O)Nc1ccccc12 (stereo not drawn),4.1%
Clc1ccc(C2[C@H]3CN(CC4CCCCC4)[C@H](c4ccccc4)C34CC2(c2cccnc2)C4)cn1 (stereo partly drawn),2.2%
O=C(NCCC1=CCCCC1)c1cnccn1,6.6%
COc1ccc(CN2CC(C(=O)NCCCN3CCN(Cc4ccccc4)CC3)CC2=O)cc1 (stereo not drawn),1.0%
CSc1nc(N2CCN(CCO)CC2)c2sc3nc(-c4ccco4)c4c(c3c2n1)CCC4,31.6µM*
O=c1c2ccccc2nc(-c2ccccc2)n1CCN1CCOCC1,5.3%
COc1cccc(N2CC34C=CC(O3)C(C(=O)O)C4C2=O)c1 (stereo not drawn),0.4%
O=C(CN1CCC(O)(c2ccc3c(c2)OCO3)CC1)OC1CCCCC1,2.0%
CCCNC(=O)N1CCN(c2ncccn2)CC1,8.4%
CCOC(=O)c1c(NC(=O)CSc2nnc(C)c(=O)[nH]2)sc2c1CCC2,-14.5%
CCC(Oc1ccccc1)C(=O)Nc1nnc(C(F)(F)F)s1 (stereo not drawn),-2.5%
CCC(OC(=O)c1ccco1)C(=O)NCc1ccc(C)cc1 (stereo not drawn),3.9%
O=C(CN1CCN(c2ccc(F)cc2)CC1)Nc1nnc(-c2ccccc2)s1,-19.1%
O=C(O)[C@@H]1CCCNC1,5.0%[25.6 µM]
CC1(C)C2(Cl)C(Cl)C(Cl)C(Cl)(C(Cl)Cl)C1(Cl)C2Cl (stereo not drawn),-5.1%
Cc1cc(-n2nc(C)cc2C)nc(N)n1,-11.1%
S=C(c1ccc(-c2cc(Cl)ccc2Cl)o1)N1CCOCC1,-3.7%
CCC(CC)C(=O)Nc1cc(NC(=O)C(CC)CC)cc(C(=O)O)c1,-14.3%
O=C(CN1CCC(n2nnc3cc(F)ccc32)CC1)Nc1ccccc1N1CCOCC1,-3.4%
CN(C)c1nc(N)nc(-c2ccco2)n1,3.4%
C=C(C)CSc1nnc([C@@H](NC(=O)OC(C)(C)C)C(C)CC)o1 (stereo partly drawn),3.2%
CCCn1nnc(NC(=O)c2ccc(OCC)c(Cl)c2)n1,3.5%
Cc1onc(-c2ccccc2Cl)c1C(=O)OCn1nnc2ccccc2c1=O,-14.2%
CCc1nnc(NC(=O)C2CCCN2C(=O)NC2CCCCC2)s1 (stereo not drawn),7.3%

# Individual results from the list:
# O=C(CN1CCN(c2ccc(F)cc2)CC1)Nc1nnc(-c2ccccc2)s1 in HSD17B inhib shows -19.1%
# S=C(c1ccc(-c2cc(Cl)ccc2Cl)o1)N1CCOCC1 in HSD17B inhib shows -3.7%
# Cc1onc(-c2ccccc2Cl)c1C(=O)OCn1nnc2ccccc2c1=O in HSD17B inhib shows -14.2%
# CCc1nnc(NC(=O)C2CCCN2C(=O)NC2CCCCC2)s1 (stereo not drawn) in HSD17B inhib shows 7.3%
# Cc1cc(-n2nc(C)cc2C)nc(N)n1 in HSD17B inhib shows -11.1%

# (list continues)
SMILES,HSD17B inhib
COC(=O)c1c(C)oc2ccc(OC(=O)N3CCOCC3)cc12,-1.8%
O=C(O)c1cc(=O)c2c(Cl)cc(Cl)cc2[nH]1,-16.3%
COC(=O)C(Cc1ccc(O)cc1)NC(=O)CCC(=O)Nc1ccc(S(N)(=O)=O)cc1 (stereo not drawn),-3.3%
Cc1c(NC(=O)C(C)N2C(=O)c3ccccc3C2=O)c(=O)n(-c2ccccc2)n1C (stereo not drawn),9.7%
CCOc1ccccc1OCCOCCN1CC(C)OC(C)C1 (stereo not drawn),6.6%
O=C(NC1CCCCC1)C1CCN(S(=O)(=O)N2CCOCC2)CC1,12.8%
Cn1c(/C=N/c2nc3ccccc3[nH]2)nc2ccccc21,2.2%
C=CCn1c(SCC(=O)Nc2cc(C)c(Cl)cc2OC)nnc1-c1ccco1,-28.5%
CC(C)COP(=O)(c1ccc(N(C)C)cc1)C(O)c1ccncc1 (stereo not drawn),1.4%
O=C1C=C(NCC2CCCO2)CC(c2ccccc2)C1 (stereo not drawn),-1.2%
COc1ccccc1N1CCN(C(=O)c2cc(-c3ccc(Cl)c(Cl)c3)on2)CC1,-1.9%
Oc1[nH]c2ccccc2c1C=Nc1ccc2c(c1)OCCO2,33.7%[activator]
CCOC(=O)CNC(=O)CSc1ncnc2c1cnn2-c1ccccc1,-2.3%
CC(=O)Nc1cc(NC(C)=O)cc(C(=O)OCC(=O)N2CC(C)OC(C)C2)c1 (stereo not drawn),6.5%
Cc1cccc(-n2nnc(C(=O)Nc3ccc(F)cc3)c2N)c1,5.4%
O=C(NCCCN1CCCC1=O)NC12CC3CC(CC(C3)C1)C2,3.8%
COc1ccc(C(=O)CSc2nnc(CNC(=O)c3ccc(OC)c(OC)c3)n2C)cc1,5.0%
N#CCCN(CCC#N)C(=O)COc1ccc(Cl)cc1Cl,9.9%
CC1CCCCC1NS(=O)(=O)c1ccc(S(=O)(=O)N2CCN(CCC#N)CC2)cc1 (stereo not drawn),-0.7%
C/C(N)=C(\C#N)C(=O)NCCc1ccccn1,9.1%
CN(C)CC(=O)Nc1ccc(S(N)(=O)=O)cc1,8.2%
Cc1noc(C)c1S(=O)(=O)NCCN1CCN(c2ccccc2)CC1,-1.6%
CC(C)(C)c1ccccc1OCC(=O)NCCC(=O)O,-2.3%
Cc1onc(-c2c(F)cccc2Cl)c1C(=O)NC1=NCCS1,6.5%

# Further results:
SMILES | HSD17B inhib
CN(C)S(=O)(=O)N(Cc1ccc(Br)cc1)c1ccccc1 | -7.7%
C[N+](C)([O-])CCC=C1c2ccccc2CCc2ccccc21 | 7.7%[11.4 µM]
CCOC(=O)c1[nH]c(C)c(C(=O)NCc2cccnc2)c1C | 4.7%
Cc1cc(Oc2ccc(=O)n(C)n2)nc(Oc2ccc(=O)[nH]n2)n1 | 3.6%
Cc1ccccc1-c1nc(NCc2cccs2)c2ccccc2n1 | -3.9%
CC(=O)N1CCC2(CCN(Cc3ccncc3)CC2)CC1 | 3.6%
COc1ccc(CC(=O)OCn2nnc3ccccc3c2=O)cc1 | 6.3%
COc1cccc(C(=O)CN2C3=NCCCN3c3ccccc32)c1 | 6.9%
CN1CCN(CC#CCn2c3ccccc3c3ccccc32)CC1 | -0.3%
O=C(O)c1cc(S(=O)(=O)N2CCCCCC2)c(Cl)cc1Cl | 2.4%
COc1ccc(C(NC(=O)c2ccco2)c2ccc(OC)c(OC)c2)cc1 (stereo not drawn) | -3.0%
CCCC(=Nc1ccccc1)C1=C(O)C(C(=O)OC)C(C)(C)CC1=O (stereo not drawn) | 11.2%
CCOC(=O)c1c(N)sc2c1CCCC2 | -6.2%
CCOC(=O)CC(Nc1nc(N2CCOCC2)nc(N2CCOCC2)n1)c1ccccc1Cl (stereo not drawn) | -15.0%
C=CCNC(=O)c1c(Cl)cccc1Cl | 4.3%
CC(CCc1ccco1)NC(=O)Nc1cccc(F)c1 (stereo not drawn) | -19.4%
CC1=C(C(=O)O)N2C(=O)[C@@H](NC(=O)[C@@H](N)C3=CCC=CC3)[C@@H]2SC1 | u
COC(=O)CNC(=O)c1ccc2c(c1)S(=O)(=O)c1ccccc1C2=O | 10.6%
CCOC(=O)c1c2n(c3ccc(O)cc13)CCC2 | -3.0%
N#CC(C#N)=NNc1ccc2cn[nH]c2c1 | -16.6%[11.4 µM]
Cc1cccc(NC(=O)CSc2nnc(-c3cc(C)n(-c4ccccc4)c3C)o2)c1C | 15.8%
c1ccc2[nH]c(CN3CCN(c4ncnc5c4oc4ccccc45)CC3)nc2c1 | -7.1%
C[C@@H](CS(=O)(=O)Cc1ccccc1)C(N)=O | 3.9%[11.4 µM]
COc1ccc(OC)c(S(=O)(=O)N2CCc3ccccc32)c1 | 1.4%
O=C(OCC1OC2C(Oc3nc(=O)ccn32)C1O)c1ccccc1 (stereo not drawn) | 8.5%
COc1cc(-c2coc3cc(O[C@H]4OC(CO)C(O)C(O)C4O)c(OC)c(O)c3c2=O)cc(O)c1OC (stereo partly drawn) | -1.9%
CCOc1cccc(-c2nnc3sc(COc4ccc(C)cc4)nn23)c1 | 2.8%
CC(=O)NC(CCS(C)(=O)=O)C(=O)Nc1nccs1 (stereo not drawn) | 7.2%
CCCCn1nnc(NC(=O)c2cc3ccccc3o2)n1 | 12.9%
O=C(CCCC(=O)N(CC(=O)NC1CCCC1)Cc1ccccc1)Nc1ccccn1 | 0.4%
COc1ccc(Cn2nnnc2C(c2cc3ccc(OC)cc3[nH]c2=O)N2CCCCCC2)cc1 (stereo not drawn) | u
CCOC(=O)/C=C1\NC(=O)CS1 | 7.4%
Cc1ccc(Nc2nc(N)nc(CSc3nnc(-c4ccncc4)o3)n2)cc1 | -0.4%
COc1ccccc1OCC(O)CN1C(=O)NC(C)(C)C1=O (stereo not drawn) | 2.4%
Cn1c(=O)oc2cc(S(=O)(=O)N3CCCC(C(=O)NCc4cccs4)C3)ccc21 (stereo not drawn) | 1.8%
CCS(=O)(=O)N1CCC(C(=O)NC2CCCCCCC2)CC1 | 8.4%
O=S(=O)(NCC1CCCO1)c1ccc(Cl)c(C(F)(F)F)c1 (stereo not drawn) | 0.7%
O=C(NCC1CCCCC1)c1ccco1 | 3.4%
Cc1[nH]n(C(N)=S)c(=O)c1C(c1ccccc1)C(C#N)C#N (stereo not drawn) | -19.0%
CCS(=O)(=O)NC(C)C(c1cccs1)N1CCN(C)CC1 (stereo not drawn) | 10.3%
Cc1sc2nc(C3CC3)nc(SCC(=O)NCc3ccco3)c2c1C | -19.4%
COC(=O)c1ccc(-c2nc3ccc(C)cc3o2)cc1 | 2µM*
O=S(=O)(c1cnc[nH]1)N1CCCCCC1 | -1.4%
CCOC(=O)C1CCCN(C(=O)c2cnn3c(C(F)(F)F)cc(-c4ccccc4)nc23)C1 (stereo not drawn) | -4.0%
COCC(=O)Nc1ccc(-c2cn3cccnc3n2)cc1 | 25.1µM*
CCCn1c(SCC(=O)NCc2cccs2)nc2c1c(=O)n(C)c(=O)n2C | 0.5%
CCC(=O)N1CCc2cc(S(=O)(=O)NCCN3CCC(C)CC3)ccc21 | -2.1%
COC(=O)CSC1=NS(=O)(=O)c2ccccc21 | -26.4%
Cc1nnc2sc(-c3ccncc3)nn12 | 1.8%
Cc1ccc2c(c1)N(CCCC(=O)NCCC1=CCCCC1)C(=O)CO2 | 2.2%

# Remaining list, next part
SMILES | HSD17B inhib
O=C(Oc1ccccc1)c1ccc2nccnc2c1 | -5.8%
COc1ccc(NC(=O)c2oc3ccccc3c2NC(=O)C(C)(C)C)cc1 | -1.0%
Cc1ccc(N(C(C)C(=O)Nc2ccc(S(=O)(=O)N3CCOCC3)cc2)S(C)(=O)=O)cc1C (stereo not drawn) | -11.6%
COCc1cc(=O)[nH]c(/N=C(\N)Nc2ccc(C)cc2)n1 | 3.16µM*
CCn1c(CSc2nnc(C)n2-c2ccccc2)nc2cc(S(=O)(=O)N(C)C)ccc21 | 7.9%
O=C(CCC(=O)c1cccs1)OCc1nnc(-c2ccccc2)o1 | -4.9%
COC(=O)[C@H]1C[C@@H]1[C@H](NS(=O)(=O)c1ccc(-c2ccccc2)cc1)c1ccccc1 | -10.9%
COc1cc(-c2nnn(CC#N)n2)ccc1OCc1ccccc1 | -26.2%
CCCS(=O)(=O)N1CCC(C(=O)NCCN2CCCC2)CC1 | 5.9%

# Bioassay records (PubChem BioAssay)
